High-throughput results deposited in PubChem by National Center for Advancing Translational Sciences (NCATS).
gsp ag: gsp mutant agonism; gsp mutant cells, cAMP HTRF, 30 min; control for the full effect not named in the record; Potency, µM (series often up to 76.9 µM), for inactives: top-dose activation (cAMP increase), most hits filed as activators; actives 0.13% (n = 340,000); AID 624287; active = well fitted activation curve with a large enough effect; inconclusive = small, poorly fitted or top-dose-only effect, or another doubt; inactive = no such curve, though single readings can be large or run the other way; cell line not stated here;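 further: phosphodiesterase inhibitor Ro 20-1724 added with compounds to block cAMP breakdown; potency means the concentration at half of the fitted maximal effect; nearly all actives have a fitted effect of over 60% in size; about a fifth of the inactives were tested at one dose only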
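Cells stably selected in G418 were plated at 2000/well, grown 16-24 hr, then given compounds in DMSO with the PDE inhibitor […] (300 uM solution added) for 30 min at 37C; cAMP was read by HTRF.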
ClpP mod: qHTS Assay for Activators of ClpP | AID 651965, 2013 | ATP-dependent Clp protease proteolytic subunit (Bacillus subtilis (strain 168)), P80244 | Potency, µM (titrated, usually from 57.5 µM), for inactives: at the highest dose activity change, negative = active | purified B. subtilis ClpP, FRET peptide cleavage, 20 min | actives 1.9% (n = 340,000); active = well fitted falling curve with a large enough effect; inconclusive = small, poorly fitted or top-dose-only effect; inactive = no such curve, though single readings can be large or run the other way; further: potency means the concentration at half of the fitted maximal effect; the source files actives as falling curves though it sought activators and does not explain the sign; nearly all actives have a fitted effect of over 65% in size; many hits overshoot -100%
Target sequence (P80244 whole entry, looked up): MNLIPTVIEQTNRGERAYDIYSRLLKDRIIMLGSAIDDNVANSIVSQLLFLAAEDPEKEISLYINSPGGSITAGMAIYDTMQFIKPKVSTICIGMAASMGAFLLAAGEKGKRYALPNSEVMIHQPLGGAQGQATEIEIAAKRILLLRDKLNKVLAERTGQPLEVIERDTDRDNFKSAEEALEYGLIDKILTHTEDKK
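Purified B. subtilis ClpP, 10 microg/mL final in Tris/HCl pH8 with KCl, BSA, glycerol and Tween-20, cleaved an Abz/nitrotyrosine-quenched decapeptide. Fluorescence (ex 320, em 430) was read at 0 and 20 min at room temperature. Delta was normalized to 5.8 microM ADEP and DMSO/no-enzyme controls.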
TRPML1 ag: agonists of human TRPML1 channel; activation, % (concentration not given with the values); TRPML1-expressing cells, Ca2+ dye fluorescence, FDSS; host cell line not named in the record; reference of the full effect not given here; actives 0.12% (n = 410,000); AID 624414; in the data active = activation above about 50%; inconclusive = about 30% to 50%; inactive = below about 30%; further: 0% is about no effect; the text of the record puts the active cut at 80%
Target sequence (Q9GZU1 whole entry, looked up): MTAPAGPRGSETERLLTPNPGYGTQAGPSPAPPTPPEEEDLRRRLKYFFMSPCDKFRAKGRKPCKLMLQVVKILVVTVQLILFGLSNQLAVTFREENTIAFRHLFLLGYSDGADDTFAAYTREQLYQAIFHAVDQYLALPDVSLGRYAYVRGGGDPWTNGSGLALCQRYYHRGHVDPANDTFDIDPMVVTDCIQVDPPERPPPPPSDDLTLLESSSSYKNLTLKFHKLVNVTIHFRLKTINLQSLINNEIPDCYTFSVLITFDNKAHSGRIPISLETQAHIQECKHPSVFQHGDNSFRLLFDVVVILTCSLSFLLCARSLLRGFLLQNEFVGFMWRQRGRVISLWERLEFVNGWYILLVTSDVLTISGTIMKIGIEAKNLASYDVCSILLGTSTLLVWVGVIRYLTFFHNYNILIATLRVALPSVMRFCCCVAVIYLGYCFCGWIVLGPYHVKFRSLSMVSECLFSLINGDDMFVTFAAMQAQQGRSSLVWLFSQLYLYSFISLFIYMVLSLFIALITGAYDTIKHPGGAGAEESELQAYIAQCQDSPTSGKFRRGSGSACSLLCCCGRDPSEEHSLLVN
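TRPML1-DL cells, Tet-induced overnight (~16 h, 37 degrees C), loaded 45-90 min at room temperature with Ca8 no-wash calcium dye plus quencher. FDSS fluorescence: 10 s baseline, compound pin-transfer, 110 s agonist read, then EC80 54-4 (4uM final) and 110 s antagonist read.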
gsp antag: antagonists of gsp mutant (McCune-Albright syndrome) | gsp-mutant cells, cAMP HTRF, 30 min; control for the full effect not named in the record | actives 0.4% (n = 340,000) | AID 624288 | Potency, µM (series often up to 76.9 µM), for inactives: at the top dose activity change, negative = inhibition, actives largely listed as inhibitors; active = falling curve of any shape with a large fitted effect; inconclusive = falling curve, mostly with a smaller effect; inactive = flat or rising curve; cell line not stated here;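 further: intracellular cAMP measured with PDE inhibitor Ro 20-1724 present during compound exposure; potency means the concentration at half of the fitted maximal effect; on the % scale 0 is the no-effect control and ±100 the full control effect; nearly all actives have a fitted effect of over 65% in size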
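Measurement of cellular cAMP by homogeneous time-resolved fluorescence following a 30 min compound exposure at 37C. The PDE inhibitor […] was present throughout; the assay buffer was DPBS with 0.05% BSA and 0.005% Tween 20.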
TRPML1 blocker: blocks the human TRPML1 channel. TRPML1-inducible cells, Ca2+ dye fluorescence, FDSS; stronger effect = lower value; inhibition of EC80 agonist-evoked calcium signal. activity change, negative = inhibition, % (concentration not given with the values). AID 624415. Q9GZU1. actives 0.02% (n = 390,000); in the data active means activity change below about -50%; inconclusive means about -30% to -50%; inactive means above about -30%;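 further: stimulus is agonist 54-4 at its EC80 concentration; on the % scale 0 is the no-effect control and ±100 the full control effect; compound concentration not given in the record; the text of the record puts the active cut at -80%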
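TRPML1-DL cells, Tet-induced overnight (~16 h, 37 °C) at 1,500 cells/well, were loaded with Ca8 no-wash dye plus quencher for 45-90 min at room temperature. Compounds were pinned during FDSS kinetic reading; agonist 54-4 at EC80 (4 uM final) then added.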
Menin-MLL FL inh: displaces fluorescein MLL peptide from human menin; Fluorescence polarization, fluorescein-MLL peptide displacement from menin; FP activity change, % at 61.4 µM; 290,000 tested, under 10 active; AID 1766; inconclusive = falling polarisation curve, or a change in total fluorescence; inactive = total fluorescence flat and polarisation flat or rising; no compound was filed as active; the % refers to the polarisation; negative = inhibition;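 further: % of control where 0% means no effect; inhibitors lower the polarisation; unlabelled MLL peptide was the positive control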
* hit, by the source's call; ? = inconclusive; · = not tested or not shown; [ ] = remark or other dose.

The line under a structure holds: gsp ag, ClpP mod, TRPML1 ag, gsp antag, TRPML1 blocker, Menin-MLL FL inh
> S=c1[nH]nc(CCc2nc3ccccc3[nH]2)n1-c1ccccc1
  -4%, -1.2%, -0.7, 3%, -5, -4.1
> Cc1ccc2nc(SCC(=O)NCc3ccco3)nc(=O)n2c1
  ?, -11%, 0.8, 9%, -1, ·
> CC1(C)Cc2cccc(OCC(=O)N3CCN(c4ccccc4Cl)CC3)c2O1
  0%, -1.5%, 1.4, ?, 16, ·
> COc1ccccc1-c1nnc(SCC(=O)Nc2ccc(S(N)(=O)=O)cc2)n1N
  -45%[inhibitor], 1.8%, -0.8, 13%, -13, 0.9
> CCCn1c(CNS(=O)(=O)c2ccc(C)cc2)nc2ccccc21
  -57%[inhibitor], 1.1%, 1.3, -4%, 19, -1.2
> C[C@@H]1[C@H](O)C[C@@]23COC(=O)C2=CCCC3[C@@]1(C)CCC1COC(=O)C1 (stereo partly specified)
  -28%, -0.1%, -0.2, ?, 4, ·
> COC(=O)c1ccccc1NC(=O)Nc1cccc(C)n1
  ?, -12%, 0.4, 8%, 4, 3.0
> Cc1ccc(C)c(OCC(=O)O/N=C(\N)c2ccccn2)c1
  5%, 2.4%, -0.4, 13%, 12, 3.6
> CCOc1ncccc1C(=O)OCC(=O)Nc1ncc(C(F)(F)F)cc1Cl
  18%, -2.7%, 1.0, 4%, -14, ?
> C=CCn1c(SCc2nc(N)nc(N3CCCCC3)n2)nnc1-c1ccco1
  -28%, -9.6%, 0.7, 0%, -4, 0.5
> CCC(=O)N(C)CCc1cc2c(c(OC)c1/C=N/NC(=O)c1ccccc1O)OCO2
  13%, 1.1%, 0.3, -6%, -7, ·
> O=C1CC(N2CCC(C(=O)N3CCCCC3)CC2)C(=O)N1 (stereo unspecified)
  -28%, -0.5%, 0.0, 6%, 15, -0.5
> CCOc1ccccc1Nc1ccc2cc(S(=O)(=O)N3CCCCC3)ccc2n1
  ·, ?, 2.2, ·, -12, ·
> CC1(C(=O)NCc2cccs2)Cc2c(-c3ccc(C(N)=O)cc3)ccnc2O1 (stereo unspecified)
  ·, -10%, -0.2, ·, 41, ·
> COc1ccccc1-c1cc(-c2ccccc2)nc(SC(C(N)=O)c2ccccc2)c1C#N (stereo unspecified)
  ?, -25%, 0.9, 10%, 3, 1.8
> COc1ccc(-c2cc3ccccc3s2)cc1[C@H]1[C@H]2C=CC[C@@H](C)[C@@H]2C(=O)N1Cc1ccccc1
  ·, ?, 0.7, 6%, -14, 1.8
> CC(C)COc1ccc(C(=O)Nc2cc(-c3ccccc3)no2)cc1
  ·, ?, 3.7, ·, -19, ·
> CC(C)N1CCc2c(sc(NC(=O)c3ccco3)c2C(N)=O)C1
  21%, -9.8%, -0.4, -7%, -27, 35[activator]
> O=C(N/N=C/c1cc(Cl)ccc1O)C(=O)Nc1ccccc1OC(F)(F)C(F)F
  11%, 1.2%, 4.8, -6%, 8, ·
> Cc1ccc(Cl)cc1Nc1nn2c(=O)c3ccc(C(=O)Nc4ccc(F)cc4)cc3nc2s1
  ·, 1.3%, -0.1, ·, 7, ·
> COc1ccccc1N1CCN(CC(=O)N(CC(C)C)c2c(N)n(CC(C)C)c(=O)[nH]c2=O)CC1
  12%[15.4 µM], ·, -0.1, -16%, -4, 2.1
> COc1ccc(OC[C@@H](O)CNC(=O)c2cccc3c2C(=O)c2ccc(-c4ccc(F)cc4OCc4ccccc4)cc2S3(=O)=O)cc1
  -15%, -3.3%, 0.0, -3%, 1, ·
> Cc1ccc(S(=O)(=O)N2CCN(S(C)(=O)=O)C2C)cc1 (stereo unspecified)
  1%, ?, -0.1, 18%, 0, ·
> CCCOc1ccc(N2C(=O)CC(NCc3cccnc3)C2=O)cc1 (stereo unspecified)
  -2%, ·, 0.0, -12%, 3, -7.5
> Cc1ccc(NCC(=O)Nc2ccc(Br)cc2)cc1F
  -29%, 3.3%, -0.4, 5%, 9, 1.2
> Cc1ccc(OCC(=O)Nc2ccc(O)c(C(=O)O)c2)cc1C
  -12%, 22µM*, -0.4, -4%, 9, 3.8
> CC1CN(C2=CC(=O)CCC2)CC(C)O1 (stereo unspecified)
  -20%, -1.1%, 1.7, 7%, 8, 2.2
> CCC(C)C(NC(=O)C1CCC(C)CC1)C(=O)Nc1ccc(OC)cc1 (stereo unspecified)
  1%[15.4 µM], 1.4%, -1.8, 16%, -3, 1.5
> Cc1ccc(C)c(N2CCN(C(=O)CN3C(=O)CSc4c3c(C)nn4-c3ccccc3)CC2)c1
  ·, -5.6%, -0.8, ·, -5, ·
> Cc1ccc(NC(=O)c2c(C)nc(Nc3nc4ccccc4o3)nc2C)cc1
  -3%, -0.2%, 0.0, 0%, 9, 4.2
> COc1ccc(C2CC3(CC(C)(C)NC(SC)=N3)Oc3cc(O)cc(C)c32)cc1 (stereo unspecified)
  -25%, -0.2%, -0.4, 28%, -12, 0.9
> O=C(Cn1cc(COc2ccc(Cl)c(Cl)c2)nn1)NS(=O)(=O)c1ccccc1OC(F)(F)F
  ·, -5.2%, -0.2, ·, 8, ·
> Cn1nccc1C(=O)Nc1cc(Cl)ccc1Cl
  -7%, -0.2%, 0.9, 3%, 16, ·
> CCOC(=O)c1sc2nc(SCC(=O)NCc3ccco3)n(Cc3ccccc3)c(=O)c2c1C
  -1%, -0.5%, -0.6, 2%, -2, 3.6
> CC(Oc1ccc(Cl)cc1Cl)C(=O)Nc1ccc(O)cc1 (stereo unspecified)
  15%[15.4 µM], ·, -0.8, -1%, -9, 5.1
> COc1ccc(C2CC(C(C)(C)C)=NN2c2ccc(S(N)(=O)=O)cc2)cc1 (stereo unspecified)
  ·, -20%, -0.2, -7%, 14, ·
> COCCN1C=C(C(=O)OC)C(c2cc3c(cc2Br)OCO3)C(C(=O)OC)=C1
  0%, -5.0%, -0.2, 1%, 2, 2.8
> CC(CNC(=O)c1ccc(Br)o1)NC(=O)c1ccc(Br)o1 (stereo unspecified)
  34%, -0.9%, -0.4, 4%, -8, 5.8
> Cc1cc(-c2ccccc2)nc(N2CCC(C(=O)NC34CC5CC(CC(C5)C3)C4)CC2)n1
  -9%, -7.1%, 2.2, 1%, -13, -0.8
> Cc1c(C(=O)/C=C/N(C)C)nnn1-c1ccc(F)c(Cl)c1
  -39%[inhibitor], ·, 1.0, -16%, 15, 11
> COC(=O)[C@@H](NC(=O)NCCC1=CCCCC1)C(C)C
  24%[15.4 µM], ·, -1.2, 15%, 9, 1.8
> O=C(O)c1ccccc1C(=O)N(c1ccccc1)c1ccccc1
  ?, -3.7%, -0.4, -7%, -5, ·
> Cc1ccc(C(=O)Nc2nc3n(n2)C(c2ccccc2)C=C(c2ccccc2)N3)cc1 (stereo unspecified)
  ·, -19%, 5.6, ·, 2, ·
> CCCC(=O)NC1=C(Cl)C(=O)c2ccccc2C1=O
  -2%, -0.8%, 1.3, 45µM*, -26, ·
> O=C(COC(=O)Cc1c[nH]c2ccccc12)Nc1ccc(Cl)cc1
  0%, -0.1%, -0.2, ·, -5, ·
> CC(=O)c1ccccc1C(=O)N1CCC(CCC(=O)NCc2ccc(F)cc2)CC1
  -72%[inhibitor], -1.0%, -0.5, ·, 11, ·
> CCOc1ccccc1NC(=O)NCCC1=CCCCC1
  17%, ·, 0.4, 7%, -7, -1.6
> Cc1ccc(NC(=O)COC(=O)Cc2cccs2)c(Br)c1
  -23%, -2.4%, 2.1, -9%, 8, -0.9
> CCCCn1c(N)c(N(CCC(C)C)C(=O)C2CC(=O)N(c3ccc(OC)cc3OC)C2)c(=O)[nH]c1=O (stereo unspecified)
  13%, -1.1%, 2.8, 11%, 9, ·
> O=C(CNC(=O)c1ccc(Cl)cc1)OCC(=O)c1ccc2c(c1)OCCO2
  7%, 0.1%, 0.0, 1%, 15, 6.5
> OCc1nc2ccccc2n1CCCCOc1ccccc1
  24%, ·, 1.1, 3%, -15, ·
> COc1ccc(OC)c(CCNC(=O)C(C)n2c(C)c3cnn(-c4ccccc4)c(=O)c3c2C)c1 (stereo unspecified)
  ·, 1.2%, -0.9, ·, -10, ·
> CCCCn1c(=O)nc2n(-c3ccc(F)cc3)c3ccccc3cc-2c1=O
  ·, 4.8%, 1.1, ·, -1, ·
> COc1ccc(/C=C(\C)c2nc(C)c(-c3ccccc3)c(=O)[nH]2)cc1
  -1%, ·, 0.9, 5%, 14, 0.1
> CS(=O)(=O)N(CC(=O)N1CCC(C(N)=O)CC1)C1CCCCC1
  -26%, -5.9%, 0.1, 10%, 15, 0.5
> O=C(COc1ncnc2cc([N+](=O)[O-])ccc12)NC(=O)NC1CCCCC1
  -11%, -0.4%, -0.2, -6%, -8, 0.6
> CCN(CC(=O)Nc1ccc(Cl)c(S(=O)(=O)N(C)C)c1)CC(=O)NC(C)C
  15%, ·, -0.3, -6%, -7, 1.8
> FC(F)Oc1ccc(NC(=S)N2CCc3ccccc32)cc1
  8%[15.4 µM], ·, -0.5, 2%, 7, 0.5
> CC(=O)c1cccc(N=C2C(=O)Nc3ccccc32)c1
  11%, 4.5%, 1.4, -2%, 5, 3.3
> COc1cc(/C=N/O)cc(Br)c1OCC(=O)NCc1ccccc1
  -35%[inhibitor], 1.2%, 0.2, 17%, 13, 9.8

Next section.
The line under a structure holds: gsp ag, ClpP mod, TRPML1 ag, gsp antag, TRPML1 blocker, Menin-MLL FL inh
> CC1C(=NO)C(C)C(c2ccccc2)NC1c1ccccc1 (stereo unspecified)
  -8%, -0.3%, -0.3, 5%, 10, 3.7
> COc1ccc(CCNC(=O)CCS(=O)(=O)c2ccc3c(c2)NC(=O)CO3)cc1OC
  23%, -2.3%, -0.6, 11%, 10, ·
> COc1ccccc1NC(=O)CN1CCN(CC(=O)Nc2ccc(F)c(F)c2)CC1
  ·, -0.3%, 0.3, ·, -12, ·
> COc1ccc(NC(=O)C2CCC(CNS(=O)(=O)c3cccc4nsnc34)CC2)cc1OC (stereo unspecified)
  ·, -2.6%, 0.1, ·, -4, ·
> O=C(c1cccc(Cl)c1)C1CCCN(C(=O)c2ccoc2)C1 (stereo unspecified)
  -9%[15.4 µM], ·, 3.0, -4%, 4, -1.5
> Cc1cccc(NC(=O)CN2C(=O)NC(C)(c3ccc4c(c3)OCO4)C2=O)c1 (stereo unspecified)
  -34%, -0.3%, 1.1, -4%, -2, 3.8
> O=C(Nc1ccccc1F)C(=Cc1sc(N2CCOCC2)nc1-c1ccccc1)C(=O)Nc1ccccc1F
  11%[15.4 µM], ·, 3.0, -5%, -8, ?
> CC1OC(C)(C)OC1C1CNc2nc(NC(=O)C(C)(C)C)[nH]c(=O)c2N1C(=O)c1cccnc1 (stereo unspecified)
  -23%[15.4 µM], 1.3%, 0.2, 15%, -16, ·
